CSC inhib = blocks cancer stem cells. cancer stem cell-like cells viability, luminescence. inhibition, % at 7.5 µM. 300,000 compounds, 1.1% hits. AID 2717;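 active means mean at 75% or more and at least half the replicates too; tested in HMLE shEcad cells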;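 further: 0% = median of negative and 100% = median of positive control wells; the first replicate is given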
HIV Env fusion = blocks HIV Env-driven cell-cell fusion; AID 651610; 360,000 compounds, 1.1% hits; HeLa-JRFL Env/CEM21 cell fusion, luciferase; inhibition, % at 12.3 µM;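 active means mean replicate inhibition score of at least 50 and every replicate individually at or above 50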;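 further: 0% = plate neutral controls and 100% = maraviroc near 300 nM; one replicate is shown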
UUG fidelity = modulators of start codon recognition fidelity in yeast. activity score, % at 18.7 µM. 350,000 compounds, 0.13% hits. AID 602363. S. cerevisiae UUG-firefly luciferase reporter, luminescence/redox ratio;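 active means replicate mean at a twofold rise or more, about +100% in these data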;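 further: firefly luciferase made from a UUG start codon reports start codon fidelity; reporter light over untreated wells divided by growth signal over untreated wells; some hits fall short of that in this replicate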
Rce1 inhib = yeast Ras-converting enzyme inhibition | Q03530 | yeast membranes, quenched prenylated peptide cleavage fluorescence | calls only | 290,000 compounds, 0.27% hits;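 active means fall in fluorescence gain of 50% or more versus controls, with final raw signal at or below 3038400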;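 further: plate controls were neutral control wells for no effect and wells lacking membranes for full effect; tested at 10 µM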
MT1-MMP act inh = blocks activation of human MT1-MMP | 360,000 compounds, 0.061% hits | AID 651647 | GFP/RFP ratio change, % at 20 µM | HT1080 RFP-PRO-GFP cells, GFP/RFP ratio fluorescence, overnight; percent of plate control window, DMSO zero;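 active means GFP/RFP ratio change of at least 30% with cell ATP level not reduced by more than half and red fluorescence within 50% of control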; further: strong numbers were not always called active
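Compound: 20 µM single dose, 1% DMSO / System: HT1080 RFP-PRO-GFP cells / Controls: DMSO and RFP-L50D-GFP cell wells / Read-out basis: GFP/RFP fluorescence ratio / Schedule: overnight compound exposure at 37 °C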
PABP polyA inh = PABP-poly(A) binding inhibition | AID 2014 | P11940 | 290,000 compounds, 1% hits | inhibition, % at 35 µM | PABP-poly(A) RNA binding, fluorescence polarization;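 active means 50% or more with normal probe brightness, or confirmed in later tests; about a fifth of its hits are not listed in these tables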;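 further: calls also rest on retests at 20 µM and on dose response follow-up; controls were probe without protein and protein plus probe with vehicle; some compounds called inactive have numbers as strong as hits; many hits fall short of the cut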
Target sequence (P11940 whole entry, looked up): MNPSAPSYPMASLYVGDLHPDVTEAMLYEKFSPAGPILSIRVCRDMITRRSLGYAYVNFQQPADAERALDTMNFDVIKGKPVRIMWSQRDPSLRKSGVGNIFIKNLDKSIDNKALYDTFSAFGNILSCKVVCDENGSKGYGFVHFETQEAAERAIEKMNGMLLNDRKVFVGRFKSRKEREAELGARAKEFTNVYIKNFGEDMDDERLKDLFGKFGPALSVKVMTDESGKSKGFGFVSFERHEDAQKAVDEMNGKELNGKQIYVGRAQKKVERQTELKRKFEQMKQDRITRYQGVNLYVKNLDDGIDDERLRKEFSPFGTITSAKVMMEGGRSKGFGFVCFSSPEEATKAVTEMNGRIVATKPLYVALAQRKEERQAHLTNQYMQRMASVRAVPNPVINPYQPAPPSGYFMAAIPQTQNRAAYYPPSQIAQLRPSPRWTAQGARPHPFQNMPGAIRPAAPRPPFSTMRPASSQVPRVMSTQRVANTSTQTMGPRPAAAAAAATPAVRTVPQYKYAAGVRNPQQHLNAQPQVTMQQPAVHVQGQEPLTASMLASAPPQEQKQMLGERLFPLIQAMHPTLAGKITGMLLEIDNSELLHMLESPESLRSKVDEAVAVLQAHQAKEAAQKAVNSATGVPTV
eIF4H inh = inhibitors of RNA binding by human eIF4H; eIF4H fluorescence polarization binding assay; Q15056; 290,000 compounds, 0.94% hits; inhibition, % at 35 µM;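 active means 50% or more with normal probe brightness, or confirmed in later tests; about a fifth of its hits are not listed in these tables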;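 further: calls also rest on retests at 20 µM and on dose response follow-up; 0% = protein and probe with vehicle and 100% = probe without protein; strong numbers were not always called active; many hits fall short of the cut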
eIF4H inh retest = further read-out of eIF4H inh, marked with its call; inhibition, %; compound at 20 µM; confirmation average;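 mean of two retest wells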
PABP polyA inh retest = second read-out of PABP polyA inh, no call of its own (marks repeat the call); inhibition, %; compound at 20 µM; confirmation repeats;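 mean of two retest wells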
MT1-MMP act inh RFP = second read-out of MT1-MMP act inh, no call of its own (marks repeat the call); RFP signal change, %; measured here: RFP expression control read;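 0 = vehicle wells; hits needed this value within 50% of zero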
Starred values were filed as active, the others as inactive; i = inactive; / = no result given. Not all compounds are listed (hit frequency here may not be typical).

SMILES	CSC inhib	HIV Env fusion	UUG fidelity	Rce1 inhib	MT1-MMP act inh	MT1-MMP act inh RFP	PABP polyA inh	eIF4H inh	others
CCCCCCCCSc1nnc(-c2ccc(OC)cc2)o1	6	/	-18	i	1	3	3	-11
c1ccc(-c2nnc(C3CC(c4ccncc4)=NO3)o2)cc1 (centres undefined)	-9	-16	-1	i	5	6	/	/
COc1ccc(C)cc1NC(=O)CN(c1ccc(F)cc1)S(C)(=O)=O	-1	-63	-3	i	-2	-3	0	-5
COc1ccc(CN2CCNC(=O)C2CC(=O)NC2CCOCC2)c(F)c1 (centres undefined)	-9	-5	-4	i	-2	5	41	-5
CC(=O)C1(O)CCC2C3CC(C)C4=CC(=O)CCC4(C)C3CCC21C (centres undefined)	/	-495	1	/	0	-4	/	/
COc1cccc(OC)c1C(=O)Nc1c(C(=O)N2CCN(C)CC2)oc2ccccc12	-11	4	-12	i	-3	1	-5	-8
O=C(N/N=C/c1ccc[nH]1)c1ccc(O)cc1	-11	7	/	i	0	-2	-5	-8
CCCCOc1ccc(C(O)(CCN2CCOCC2)c2ccccc2)cc1 (centres undefined)	2	12	4	i	0	-2	-4	5
CN(Cc1ccccc1)C(=O)CCNC(=O)Cn1cnc2ccccc2c1=O	2	/	10	i	7	2	0	-1
O=C(NCCN1CCOCC1)c1cc(S(=O)(=O)Nc2ccccc2F)c(Cl)cc1Cl	-9	9	-14	i	0	2	-3	-1
O=C(Cc1ccc(Nc2nc(=S)[nH]c3ccccc23)cc1)NC1CCCCC1	0	-3	/	i	/	/	41	2
O=C(CN(c1ccc(F)cc1)S(=O)(=O)c1ccccc1)N1CCOCC1	12	9	8	i	-4	4	2	-7
COc1cc(/C=C/C(=O)CC(=O)/C=C/c2ccc(O)c(OC)c2)ccc1O	94*	/	14	i	-39	-8	2	50
O=C(Cn1cc(C(F)(F)F)cc(Cl)c1=O)Nc1cccc(S(=O)(=O)N2CCCCC2)c1	-10	-1	-14	/	3	-7	/	/
COc1ccccc1/C=C/C=N/NC(=O)Cc1cccn1C	9	/	/	i	0	3	4	41
O=C(CC1SC(N2CCCCC2)=NC1=O)Nc1ccc(C(=O)NCc2ccccc2)cc1 (centres undefined)	-12	-8	-1	/	-1	0	/	/
C=CCn1c(/N=C/c2ccc3c(c2)OCO3)nc2ccccc21	-4	/	-17	i	6	7	11	-4
CCN(CC)C(=O)CSC(=Nc1ccccc1F)NC#N	1	/	-22	i	-40	2	56*	46*	eIF4H inh retest=93*;PABP polyA inh retest=98*
Cc1ccc(OCC(O)Cn2c(=N)n(CCN3CCOCC3)c3ccccc32)cc1 (centres undefined)	-4	-16	1	i	-5	3	1	-5
COc1cc(/C=N/NC2=NC(C)(C)Cc3ccccc32)cc(OC)c1OC	5	5	/	i	1	-3	-4	-2

Next section; it opens with the five that closed the last part.
SMILES	CSC inhib	HIV Env fusion	UUG fidelity	Rce1 inhib	MT1-MMP act inh	MT1-MMP act inh RFP	PABP polyA inh	eIF4H inh	others
O=C(CC1SC(N2CCCCC2)=NC1=O)Nc1ccc(C(=O)NCc2ccccc2)cc1 (centres undefined)	-12	-8	-1	/	-1	0	/	/
C=CCn1c(/N=C/c2ccc3c(c2)OCO3)nc2ccccc21	-4	/	-17	i	6	7	11	-4
CCN(CC)C(=O)CSC(=Nc1ccccc1F)NC#N	1	/	-22	i	-40	2	56*	46*	eIF4H inh retest=93*;PABP polyA inh retest=98*
Cc1ccc(OCC(O)Cn2c(=N)n(CCN3CCOCC3)c3ccccc32)cc1 (centres undefined)	-4	-16	1	i	-5	3	1	-5
COc1cc(/C=N/NC2=NC(C)(C)Cc3ccccc32)cc(OC)c1OC	5	5	/	i	1	-3	-4	-2
COc1ccc(CN=C(N)N=C(N)N)cc1Cl	-2	15	-8	i	0	-6	-4	3
Cc1c(N(C)C(=O)COc2ccc3ccccc3c2)c(=O)n(-c2ccccc2)n1C	8	-28	-12	i	3	1	-6	-12
CCCn1c(SCC(=O)N2c3ccccc3CC2C)n[nH]c1=O (centres undefined)	/	4	-3	/	5	-1	/	/
CCOC(=O)N/N=C(\C)c1ccc(C)o1	9	-1	/	i	3	3	-1	7
CSCC[C@H](NC(=O)N1CCn2c1nc1ccccc12)C(=O)NCc1ccc2c(c1)OCO2	7	9	-19	i	7	0	4	-9
C=CCOc1ccc(/C(CC)=N/O)cc1OC	-8	i	-12	i	-3	1	4	-1
COCC(=O)NNC(=O)Cc1ccc(Cl)cc1	0	20	/	i	1	3	2	-6
O=C(Nc1ccc2c(c1)OCO2)C1CCCN1C(=O)Nc1cccc(F)c1 (centres undefined)	-5	/	-22	i	9	-1	2	-6
Cc1ccccc1OCCNC(=S)Nc1ccccc1	-1	/	-37	i	3	-5	5	-2
CCCSC1=NN2CCCC(=O)N=C2S1	-2	-18	-4	i	4	-1	-4	3
CC(=O)Oc1cccc(C(=O)Nc2ccccc2NC(=O)c2cccc(OC(C)=O)c2)c1	2	3	-5	i	3	2	4	-2
COCCCNC(=O)c1ccc2nc3ccccc3c(=O)n2c1	-3	/	-4	i	8	7	5	-12
O=S(=O)(CCc1ccncc1)Cc1ccc2c3c(cccc13)CC2	-3	2	/	i	6	-7	6	5
COc1ccc(C2C(C#N)=C(N)Oc3n[nH]c(C)c32)cc1Cn1cc([N+](=O)[O-])cn1 (centres undefined)	16	/	-1	i	1	-2	10	6
O=C(O)c1ccccc1C(=O)N1CCN(c2cccc(Cl)c2)CC1	-7	-61	-12	i	-2	1	34	13
O=C(Nc1ccccc1)O/N=C/c1ccc(F)cc1	16	-112	-27	i	2	1	11	-12
COc1ccc(-c2ccc(-c3noc(C4CCCCC4)n3)c(OC)n2)cc1	35	/	/	i	0	2	5	1
COc1ccc(S(=O)(=O)N2CCCCC2c2cc(C(=O)N3CCOCC3)no2)cc1 (centres undefined)	/	-6	-4	/	3	0	/	/
O=S(=O)(Nc1ccc(-c2csc(-c3ccccc3)n2)cc1)c1ccccc1	148*	-8	/	i	-1	-1	-13	-5
CN1C(=O)N(c2ccc(Cl)cc2)C(C)(O)CC1(C)C (centres undefined)	-3	17	-4	i	-10	-5	-7	-7

Random excerpt: 2 compounds from above, in no set order.
SMILES	CSC inhib	HIV Env fusion	UUG fidelity	Rce1 inhib	MT1-MMP act inh	MT1-MMP act inh RFP	PABP polyA inh	eIF4H inh	others
O=S(=O)(CCc1ccncc1)Cc1ccc2c3c(cccc13)CC2	-3	2	/	i	6	-7	6	5
COc1ccc(-c2ccc(-c3noc(C4CCCCC4)n3)c(OC)n2)cc1	35	/	/	i	0	2	5	1

By substructure: those above with two or more sulfur atoms
SMILES	CSC inhib	HIV Env fusion	UUG fidelity	Rce1 inhib	MT1-MMP act inh	MT1-MMP act inh RFP	PABP polyA inh	eIF4H inh	others
CCCSC1=NN2CCCC(=O)N=C2S1	-2	-18	-4	i	4	-1	-4	3
O=S(=O)(Nc1ccc(-c2csc(-c3ccccc3)n2)cc1)c1ccccc1	148*	-8	/	i	-1	-1	-13	-5

The main list resumes; the two compounds before the break are reprinted first.
SMILES	CSC inhib	HIV Env fusion	UUG fidelity	Rce1 inhib	MT1-MMP act inh	MT1-MMP act inh RFP	PABP polyA inh	eIF4H inh	others
O=S(=O)(Nc1ccc(-c2csc(-c3ccccc3)n2)cc1)c1ccccc1	148*	-8	/	i	-1	-1	-13	-5
CN1C(=O)N(c2ccc(Cl)cc2)C(C)(O)CC1(C)C (centres undefined)	-3	17	-4	i	-10	-5	-7	-7
Cc1ccc(N(CC(=O)N/N=C/c2ccco2)S(=O)(=O)c2ccccc2)cc1	-5	/	-12	i	2	-2	17	2
Cc1nn(-c2ccc(N3CCOCC3)nn2)c(C)c1CCC(=O)Nc1ccc(F)cc1	-1	-2	-9	i	1	-2	-7	-2
O=C(CS(=O)(=O)Cc1ccccc1)NCc1ccc2c(c1)OCO2	3	-25	-26	i	3	3	7	-9
O=C(Cn1ccc(C(F)(F)F)n1)NNC(=O)c1ccco1	-14	/	-13	/	1	4	/	/
Cc1ccc(C2(c3noc(CN(C)CC4CCCCO4)n3)CCCC2)cc1 (centres undefined)	-7	9	17	i	-2	-1	-2	-6
CCC(C)Nc1nc(N)c([N+](=O)[O-])c(NC2CCCCC2)n1 (centres undefined)	-5	4	-6	i	5	2	12	-7
CCOc1ccc(NC(=O)COC(=O)c2cc(S(=O)(=O)N3CCCC3)ccc2C)cc1	1	-19	-10	/	2	-7	/	/
Cc1ccc(S(=O)(=O)N2CCSC2C(=O)O)cc1 (centres undefined)	-11	-23	-18	i	-5	1	-3	10
C=CCn1c(=O)c2c(nc3n2CC(C)CN3c2cccc(OC)c2)n(C)c1=O (centres undefined)	-4	-1	-6	i	3	2	0	8
Cc1ccc(C(=O)Nc2ccc(Cl)cc2C)c(Cl)c1	9	-130	-18	i	2	-2	-16	-10
Cc1oc(-c2ccc(Cl)cc2)nc1CN1CCC(C(=O)NCc2cccs2)CC1	-7	-25	-6	i	8	-1	11	-4
CN(C)/C(Cn1cncn1)=C1/N=C(c2c(F)cccc2F)OC1=O	-8	-5	/	i	-10	-2	-5	3
Cc1[nH]n(-c2ccccc2)c(=O)c1/C=N/NC(=O)c1ccccc1F	/	11	-9	i	6	-2	5	11
CC(=O)Nc1ccc(S(=O)(=O)Nc2ccc(-n3cnnn3)cc2)cc1	-5	/	-5	/	3	0	/	/
COc1cc(C(=O)OCC(=O)N2CCCC2=O)cc(OC)c1C	18	-1	38	/	5	3	/	/
CCCCCc1ccc(-c2cn(CCCOCc3ccccc3)nn2)cc1	-16	/	-13	i	1	-2	8	-5
COc1ccc([C@@H]2C[C@H]3CN(Cc4ccccc4OC)C(=O)[C@]34CCCN24)cc1C	-8	13	3	i	-7	4	17*	52*	eIF4H inh retest=88*;PABP polyA inh retest=78*
CCOC(=O)/C(C#N)=C/c1cccc([N+](=O)[O-])c1	5	12	/	i	-2	1	1	-2
CCc1c(C)nc2nc(SCc3ccccc3)[nH]n2c1=O	-7	9	-8	i	3	1	0	-6
CC(Oc1ccc(Cl)cc1Cl)C(=O)Nc1cccnc1 (centres undefined)	-10	/	-21	/	-4	-8	-6	-2
OCCNCCOCCOc1ccccc1-c1ccccc1	/	18	-18	i	-1	4	9	5
Cc1ccc(Nc2c(-c3cccnc3)nc3ccc(Br)cn23)cc1	-3	3	/	i	3	-2	-6	-3
CC(CC(=O)O)CC(=O)Nc1cccc([N+](=O)[O-])c1 (centres undefined)	-9	2	/	i	0	3	-10	4
NC(=O)CC[C@H](NC(=O)c1ccc(F)cc1)C(=O)N1CCN(Cc2ccc3c(c2)OCO3)CC1	-9	-3	-25	/	3	1	/	/
Nc1nc(N2CCN(c3ccccc3)CC2)n[nH]1	5	-12	-15	i	1	7	-2	4

Screening data from PubChem.
